From PubChem
GCN5L2 inh: inhibitors of human GCN5L2 histone acetyltransferase; GCN5L2 HAT assay, ThioGlo1 CoA-SH fluorescence; Potency, µM (titrated, usually from 58.9 µM), for inactives: top-dose activity change, negative = inhibition, hits mostly inhibitors; 0.21% of 390,000 active; active = well fitted inhibition curve with a large enough effect; inconclusive = small, poorly fitted or top-dose-only effect, or another doubt; inactive = no such curve, though single readings can be large or run the other way
Target sequence (Q92830 whole entry, looked up): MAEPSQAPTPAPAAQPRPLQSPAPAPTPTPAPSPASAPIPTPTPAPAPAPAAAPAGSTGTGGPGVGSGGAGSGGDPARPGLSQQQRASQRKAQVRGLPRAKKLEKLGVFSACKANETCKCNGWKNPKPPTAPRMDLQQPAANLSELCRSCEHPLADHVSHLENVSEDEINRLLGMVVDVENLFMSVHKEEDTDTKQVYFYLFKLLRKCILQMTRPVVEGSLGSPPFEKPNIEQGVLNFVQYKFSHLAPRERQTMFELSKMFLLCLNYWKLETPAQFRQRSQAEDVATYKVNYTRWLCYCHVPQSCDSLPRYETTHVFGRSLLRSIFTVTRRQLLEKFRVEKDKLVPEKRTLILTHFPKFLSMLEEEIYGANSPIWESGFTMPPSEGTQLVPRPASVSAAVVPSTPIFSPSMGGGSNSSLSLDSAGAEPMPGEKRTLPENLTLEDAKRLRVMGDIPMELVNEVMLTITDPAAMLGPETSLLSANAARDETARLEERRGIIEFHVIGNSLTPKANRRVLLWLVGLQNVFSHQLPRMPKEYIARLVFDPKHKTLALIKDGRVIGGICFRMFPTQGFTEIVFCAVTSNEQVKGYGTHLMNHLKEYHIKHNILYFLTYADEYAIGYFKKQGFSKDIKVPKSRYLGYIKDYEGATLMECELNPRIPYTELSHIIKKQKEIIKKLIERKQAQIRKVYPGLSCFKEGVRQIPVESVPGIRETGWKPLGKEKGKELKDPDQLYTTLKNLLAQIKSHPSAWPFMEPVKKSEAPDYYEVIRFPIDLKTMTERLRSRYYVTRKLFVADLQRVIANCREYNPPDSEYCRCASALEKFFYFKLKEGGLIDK
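Fluorescence readout, Ex340nm/Em540nm: ThioGlo1 (50uM final) reacts with free CoA thiol released as 20nM GCN5L2 acetylates H3(1-25) peptide (75uM) using acetyl-CoA (70uM). Compound and enzyme sat 15 min beforehand; 20 min room-temperature reaction.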
* marks the source's active call; other numbers are inactive results; ? = inconclusive; & = joins results of further samples. % is set by controls: 0 for no effect and ±100 for the full control effect; potency is the fitted concentration of half-maximal effect.

Preview, 7 compounds:
GCN5L2 inh	SMILES
-3%	CC(=O)Nc1ccc(NS(=O)(=O)c2cc(Br)cc3c2N(C(=O)C2CC2)CC3)cc1
0%	COc1ccc(S(=O)(=O)N2CCCCC2)cc1NC(=O)CCOc1cc(C)ccc1C
-3%	Nc1c(C(=O)CSc2nc(-c3ccccc3)cs2)c(=O)[nH]c(=O)n1C1CC1
1%	COCCNC(=O)Cn1c(=O)n(CCC(=O)NCCc2ccccc2)c(=O)c2ccccc21
-7%	CCOC(=O)/C(C#N)=C/c1ccc(OCC(=O)Nc2ccc(C)c(C)c2)c(OC)c1
0%	Cc1cc(C)cc(NC(=O)c2cc(C)nc3ccccc23)c1
?	CCOC(=O)C1C(C(=O)OC)=C(c2ccc(OC)cc2)c2ccc(OC)cc2N1S(=O)(=O)C(F)(F)F (centres undefined)

The list itself, repeating the preview:
GCN5L2 inh	SMILES
-3%	CC(=O)Nc1ccc(NS(=O)(=O)c2cc(Br)cc3c2N(C(=O)C2CC2)CC3)cc1
0%	COc1ccc(S(=O)(=O)N2CCCCC2)cc1NC(=O)CCOc1cc(C)ccc1C
-3%	Nc1c(C(=O)CSc2nc(-c3ccccc3)cs2)c(=O)[nH]c(=O)n1C1CC1
1%	COCCNC(=O)Cn1c(=O)n(CCC(=O)NCCc2ccccc2)c(=O)c2ccccc21
-7%	CCOC(=O)/C(C#N)=C/c1ccc(OCC(=O)Nc2ccc(C)c(C)c2)c(OC)c1
0%	Cc1cc(C)cc(NC(=O)c2cc(C)nc3ccccc23)c1
?	CCOC(=O)C1C(C(=O)OC)=C(c2ccc(OC)cc2)c2ccc(OC)cc2N1S(=O)(=O)C(F)(F)F (centres undefined)
2%&0%	CCOC(=O)C(C)Sc1ccc2nnc(CCNS(=O)(=O)c3ccc(C)cc3)n2n1 (centres undefined)
-6%	CCOc1ccc(C(=O)N(Cc2ccccc2)c2cccc(C)c2)cc1OC
-12%	CC(=O)c1sc(Nc2ccccn2)nc1C
-1%	COc1cc(C)c(Cl)cc1S(=O)(=O)NCc1ccco1
0%	CCn1c(SCC(=O)Nc2cc(Cl)ccc2OC)nc2c([nH]c3ccccc32)c1=O
10%	CCN(CC)S(=O)(=O)c1ccc2c(c1)c(=O)c(C(=O)NCCN(C)CCc1ccccc1)cn2C
-9%	COc1ccc(CCNc2nc(N3CCOCC3)nc(N3CCOCC3)n2)cc1OC
-6%	O=C(Nc1cc(-c2nc3ncccc3o2)ccc1Cl)c1ccc([N+](=O)[O-])o1
-1%	NC(=O)c1cccc(N)c1
-5%	CCOC(=O)c1oc2ccc3c(c2c1C)C(=O)CC1(CCN(C(=O)OCC)CC1)O3
-17%	COc1ccc(OC)c(C2C(C(=O)Nc3ccccc3OC)=C(C)Nc3nc(CCCO)nn32)c1 (centres undefined)
-18%	O=C(NCCN1CCOCC1)c1ccc(CS(=O)c2ccccc2Cl)o1 (centres undefined)
3%	COc1ccccc1CNC(=O)Cn1c(-c2ccc(F)cc2)cc(C(C)=O)c1C

Reformatted: entries from further up.
Molecule,GCN5L2 inh
Cc1cc(C)cc(NC(=O)c2cc(C)nc3ccccc23)c1,0%
CCOC(=O)C1C(C(=O)OC)=C(c2ccc(OC)cc2)c2ccc(OC)cc2N1S(=O)(=O)C(F)(F)F (centres undefined),?
CCOC(=O)C(C)Sc1ccc2nnc(CCNS(=O)(=O)c3ccc(C)cc3)n2n1 (centres undefined),2%&0%
CCOc1ccc(C(=O)N(Cc2ccccc2)c2cccc(C)c2)cc1OC,-6%

Next part:
GCN5L2 inh	SMILES
-15%	CCNC(=O)n1nccc1C(C)Oc1ccc(Cl)cc1 (centres undefined)
0%	CCC(/C=N/Nc1ccc(S(=O)(=O)N2CCCC2)cc1[N+](=O)[O-])CC
-2%	Cc1ccc(S(=O)(=O)/N=C/N(C)C)cc1
-2%	Cn1cc([N+](=O)[O-])c(C(=O)NC2CCCCCC2)n1
-6%	CC1CC(C)CN(C(=O)C2CCN(S(=O)(=O)c3c(Cl)cccc3Cl)CC2)C1 (centres undefined)
-3%	COc1ccc(N(CC(=O)NC2CCCC2)C(=O)CCC(=O)Nc2nc(C)cs2)cc1OC
-3%	COc1ccccc1-n1cc(C(=O)c2cc(Cl)ccc2O)cc(C#N)c1=O
-4%	CCn1cc(/C=N\NC(=O)Cc2ccc([N+](=O)[O-])cc2)c(C)n1
-11%	COC(=O)/C(=C/c1cccc([N+](=O)[O-])c1)NC(=O)c1ccc(OC)cc1
1%	CCOC(=O)c1ccc(N2C(=O)CC(NC3CCN(C(=O)c4ccc(F)cc4)CC3)C2=O)cc1 (centres undefined)
-3%	Cn1cnnc1SCc1ccc(C#N)cc1Cl
-3%	C/C(=N/N=C1/NC(=O)CC(C(=O)O)S1)c1ccccc1 (centres undefined)
-2%	O=C(NC(=S)N1CCN(c2ccc([N+](=O)[O-])cc2)CC1)c1ccccc1Cl
-6%	CCc1cc2ccc(C)cc2nc1SCC(=O)Nc1cc(OC)c(OC)cc1C(=O)O
-1%	CCCCCCOc1ccc(N2C(=O)CC(N3CCN(C(=O)c4ccco4)CC3)C2=O)cc1 (centres undefined)
-6%	O=C(CSc1nnnn1-c1ccccc1)Nc1nsc(-c2ccccc2)n1
-3%	C=CCOC(=O)C1=C[C@H](C2CCCCC2)[C@@H](CCCO)[C@H](OCC)O1
-14%	Cc1c(/C(O)=C2/C(=O)C(=O)N(CCN(C)C)C2c2ccc(C(C)C)cc2)cnn1-c1ccccc1 (centres undefined)
-7%	COc1cccc(NC(=O)c2nnn(CC(=O)Nc3cc(C)cc(C)c3)c2N)c1
-8%	CCCc1cc(=O)[nH]c(SCc2cccnc2)n1
-1%	COc1ccc(NC(=O)Cn2c(=O)n(CCCC(=O)NCc3ccccc3Cl)c(=O)c3ccccc32)c(OC)c1
-2%	COc1ccc(CNC(=O)Cn2c(=O)n(CC(=O)N3CCCCC3)c(=O)c3sccc32)cc1
-10%	CCOC(=O)CC(NC(=O)CCc1c(C)nc2c(c1C)c(=O)n(C)c(=O)n2C)c1ccc(OCC)c(OC)c1 (centres undefined)
-6%	Cc1cccc(CNC(=O)C2CCC(CNS(=O)(=O)c3ccc4c(c3)CCCC(=O)N4)CC2)c1 (centres undefined)
-5%	COCCn1c(SC2CCOC2=O)nc2ccccc2c1=O (centres undefined)
-5%	O=C(Cc1ccccc1)NC1CCSc2ccccc21 (centres undefined)
-24%	Cc1ccc(NC(=O)C2CCN(c3nc4ccccc4[nH]3)CC2)cc1Cl
-14%	Cc1cn2c(nc1=O)OC1C(O)C(COC(=O)c3ccccc3)OC12 (centres undefined)
?	COCc1cc(CNC(=O)C2CCC(=O)N(Cc3cccc(OC)c3)C2)[nH]n1 (centres undefined)
-22%	Cc1nc(Nc2ccccc2)sc1C(=O)c1ccccc1
?	COCCn1c(SCc2ccc(F)cc2)nc2ccccc2c1=O
-2%	CC(C)(C)C(=O)CSc1ncnc2c1cnn2-c1ccccc1
-16%	Cc1ccccc1CNC(=O)c1cccc(NC(=O)c2nsc3ccccc23)c1
15%	CCOC(=O)c1c(C)[nH]c(C)c1S(=O)(=O)N1CCCC(C(=O)Nc2ncccc2C)C1 (centres undefined)
-2%	CCn1c(NC(C)=O)nc2ccccc21
-5%	O=S(=O)(CCN1CCOCC1)c1ccc(Oc2ccc(S(=O)(=O)CCN3CCOCC3)cc2)cc1
-6%	C/C(N)=C(/C#N)C(=O)COC(=O)CCS(=O)(=O)c1ccccc1
-20%	CCc1cccc(NC(=O)CN(c2ccc(C)c(C)c2)S(=O)(=O)c2ccsc2C(=O)OC)c1
-3%	CC(=O)c1ccc(NC(=O)NC2CCCc3ccccc32)cc1 (centres undefined)
-2%	CCn1c(Cc2ccccc2)nnc1SCC(=O)Nc1ccc2c(c1)OCO2
3%	COc1cc(-c2nc(C)c(C(C)=O)n2O)ccc1OCC(=O)Nc1ccc(F)cc1
-4%	CCN(CCCNC(=O)c1cc2cc3cc(C)ccc3nc2s1)c1cccc(C)c1
-4%	CCc1ccc(N(CC(=O)NCCc2ccccc2)C(=O)CCC(=O)Nc2ccccn2)cc1
5%	Cc1nc2ccccc2c(=O)n1NC(=O)c1ccccc1Cl
0%	CS(=O)(=O)N1CCCC(C(=O)NCc2ccc(F)cc2)C1 (centres undefined)
-6%	Cc1cc(C)cc(N(C(C)C(=O)NCCC2=CCCCC2)S(C)(=O)=O)c1 (centres undefined)
-11%	COc1cccc(CC(Cc2nc3ccccc3[nH]2)c2nc3ccccc3[nH]2)c1 (centres undefined)
-4%	Cc1ccc(C(=O)NC(C)C2CC3CCC2C3)c(C)c1 (centres undefined)
0%	O=C(COC(=O)Cc1cccc(C(F)(F)F)c1)Nc1ccc2c(c1)OCCO2
-2%	CC1=CN(S(=O)(=O)c2ccc(C)cc2)C[C@@H]2c3ccccc3N(S(=O)(=O)c3ccc(C)cc3)[C@H]12
-6%	COCCn1c(C(C)C)nc2oc3ccccc3c(=O)c2c1=O
-6%	Cc1ccc(-c2c(C(=O)N/N=C/c3ccsc3)nnn2-c2nonc2N)cc1
-6%	Cc1ccc(CNC(=O)CCCCCn2c(=O)c3sccc3n(CC(=O)N(C)c3ccccc3)c2=O)cc1
-3%	COc1cccc(C(=O)NCC2CCCN2S(=O)(=O)c2cccs2)c1 (centres undefined)
-2%	CCOc1ccccc1-c1nc(C(N)=O)c2[nH]c(=O)n(-c3ccccc3)c2n1
-12%	O=C(/C=C/c1ccccc1)Nc1nc(-c2cccs2)ns1
-1%	COc1ccc(S(=O)(=O)Cc2ccc(C(=O)NCc3ccccn3)o2)cc1
1%	Cc1ccc(C(=O)N2N=C(c3ccc(Br)cc3)CC2c2ccccc2O)cc1 (centres undefined)
-20%	CCc1cc(C(=O)COc2ccc(F)cc2)c(O)cc1O
-3%	NCC1CCC(N)C(O[C@@H]2C(O)[C@H](O[C@H]3OC(CO)C(O)C(N)C3O)[C@@H](N)C[C@H]2N)O1 (some centres undefined)

Following part:
GCN5L2 inh	SMILES
-5%	CC(=O)c1ccc(NS(=O)(=O)c2cc(-c3cc(C)no3)ccc2C)cc1
0%	O=C(O)CCS(=O)(=O)Cc1ccccc1Cl
-6%	Cc1noc(-c2ccc(-c3noc(-c4ccc(Cl)cc4)n3)cc2)n1
0%	Cc1cccc(S(=O)(=O)NCCC(=O)OC(C)C(=O)NC(=O)NC2CCCCC2)c1 (centres undefined)
3%	Cc1cc(NC(=O)CSc2ncc(C(=O)Nc3ccc(C)c(C)c3)c(=O)n2C)no1
3%	O=C(CO)N/N=C/c1ccc(Cl)cc1
-8%	C=CCNC(=S)NNC(=O)c1ccncc1
-4%	COc1ccccc1CNC(=O)Cn1cnc2ccccc2c1=O
-2%	CC1CC(C)CN(C(=O)Cn2nnc(-c3ccccc3)n2)C1 (centres undefined)
-3%	Cc1cc(C)cc(C(=O)NCC(=O)OCN2C(=O)c3ccccc3C2=O)c1
-5%	COc1ccc(-n2c(SCC(=O)Nc3sc4c(c3C#N)CCCC4)nnc2-c2ccccc2OC)cc1
1%	CC(C1CC1)N(C(=O)c1ccccc1O)c1ccccc1 (centres undefined)
-7%	CCN1CCN(C(=O)CN2C(=O)c3ccccc3S2(=O)=O)CC1
1%	Cc1ccc(Cn2cc(S(=O)(=O)c3cccc(Cl)c3)c(=O)c3cc(F)c(N4CCCCC4)cc32)cc1
-4%	O=C(CN1CCOCC1)Nc1ccc(S(=O)(=O)NC2CCCCC2)cc1
-4%&-16%	OC(CN1CCN(c2cccc(Cl)c2)CC1)C(c1ccccc1)c1ccccc1 (centres undefined)
-6%	CCOC(=O)N1CCN(C(=O)CSc2ncccn2)CC1
1%	Cc1ccc(NC(=O)N2CCCCC2)cc1NC(=O)N1CCCCC1
-1%	O=C(COc1ccccc1)NCC(c1ccc(Cl)cc1)N1CCOCC1 (centres undefined)
-7%	O=C(NC(=O)N1CCN(c2ccccc2)CC1)c1ccc(Cl)cc1

2 entries from above, reformatted:
SMILES | GCN5L2 inh
O=C(COc1ccccc1)NCC(c1ccc(Cl)cc1)N1CCOCC1 (centres undefined) | -1%
O=C(NC(=O)N1CCN(c2ccccc2)CC1)c1ccc(Cl)cc1 | -7%

The results go on:
GCN5L2 inh	SMILES
-3%	CCOc1ccc2oc(C(=O)NCc3ccccc3CN3CCCC3)c(C)c2c1
3%	CCC(=O)N1CCc2cc(Br)cc(S(=O)(=O)Nc3ccc(C)cc3C)c21
1%	COc1cc(-c2nnc(SCC(=O)OC3CCCCC3)o2)cc(OC)c1OC
4%	CC(C)(C)NC(=S)NCC1CC1
-9%	Cc1cc(C)cc(NC(=O)COCc2cc(-c3ccc4c(c3)OCO4)on2)c1
-23%&1%&-23%	CC[C@@H]1Cc2cc(O)ccc2C2=C1c1ccc(O)cc1C[C@H]2CC
-10%	O=C(CCN1C(=O)C2CC=CCC2C1=O)Nc1cccc(Cl)c1 (centres undefined)
2%	Cc1ccc(-c2nc(CS(=O)CC(=O)NCCN3CCOCC3)c(C)o2)cc1 (centres undefined)
4%	Cn1cc(Cl)nc1C(O)c1ccccc1 (centres undefined)
-14%	CCc1ccc(-c2[nH]c3c(c2-c2c(-n4cccc4)n(C)c(=O)n(C)c2=O)c(=O)n(C)c(=O)n3C)cc1
0%	CCOc1ccc(OCCCC(=O)N(C)CC(=O)Nc2ccc(N3CCOCC3)cc2)cc1
-17%	c1ccc(CN2CCC(N3CCC(N4CCCCCC4)CC3)CC2)cc1
-2%	CCOc1ccc(CNC(=O)Nc2ccc3c(c2)N(C)C(=O)c2ccccc2S3)cc1
-11%	CCOc1ccccc1NC(=O)CN1CCCN(Cc2cccc(Cl)c2)S1(=O)=O
-8%	Cc1ccccc1-n1c(SCC(=O)N/N=C/c2c(C)nn(-c3ccccc3)c2C)nc2ccccc2c1=O

An excerpt, and most or all hits are left out here.
